# D2 potentiator – Beta-Arrestin HTS for Positive Allosteric Modulators of the Human D2 Dopamine Receptor: Potentiators. D(2) dopamine receptor (Homo sapiens), P14416. DiscoveRx D2 beta-arrestin cells, luminescence, 90 min; 100% = 57 uM dopamine signal. potentiation, % (no concentration beside the values). hit rate 0.23% among 360,000. AID 624464, 2012; active = potentiation of 50% or more; inconclusive = 30% to 50%; inactive = 30% or less;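 further: compound concentration not given in the record; tested on top of an EC20 dose of dopamine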
#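 D2 cells co-treated with compound plus 50 nM dopamine (EC20) for 90 min at 37 deg C to detect potentiation. Beta-arrestin recruitment was read as enzyme-fragment luminescence after 1 h at ambient temperature. Full response was set by 57 uM dopamine.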
# D2 agonist – Beta-Arrestin HTS for Positive Allosteric Modulators of the Human D2 Dopamine Receptor: Agonists | hit rate 0.084% among 360,000 | activation, % (test concentration not listed) | DiscoveRx PathHunter D2 beta-arrestin, luminescence, 90 min; 100% = 57 uM dopamine signal; in the data active = activation above about 40%; inconclusive = about 15% to 40%; inactive = below about 15%; further: compound concentration not given in the record; the text of the record calls up to 30% inactive
#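 DiscoveRx PathHunter D2 beta-arrestin cells (2,100/well) attached overnight, then compound-stimulated 90 min at 37 C in HBSS/10 mM HEPES/0.1% Tween-20 buffer; beta-galactosidase complementation read by luminescence after 1 h at ambient temperature. Dopamine 57 uM final (EC100) as control.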
# CtBP-E1A blk – qHTS Assay for Inhibitors of the CtBP/E1A Interaction. activity change, % (no concentration beside the values). hit rate 0.49% among 340,000. AlphaScreen GST-E1A/His-CtBP binding, 1536-well; stronger effect = lower value; control for the full effect not named in the record. AID 651724, 2012. CtBP / adenovirus E1A interaction (AlphaScreen); in the data active means activity change below about -65%; inconclusive means about -30% to -65%; inactive means above about -30%; further: on the % scale 0 is the no-effect control and ±100 the full control effect; compound concentration not given in the record
#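 Protein mix (5X: 125 nM each GST-E1A, His-CtBP) was incubated with pinned compound 2 h at 37 deg C in dark, in 50 mM Tris pH 8.0 buffer with 300 mM NaCl. Glutathione donor and nickel acceptor beads followed; AlphaScreen signal read after 1 h.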
# PINK1 modulator – A Quantitative High throughput Screen to Identify Chemical Modulators of PINK1 Expression. PINK1 immunofluorescence, high-content cytometry, 24 h. Potency, µM (top dose mostly 76.6 µM), for the others: at the highest dose activation (PINK1 increase), actives largely listed as activators. hit rate 0.2% among 410,000. AID 624263, 2012; active = well fitted activation curve with a large enough effect; inconclusive = small, poorly fitted or top-dose-only effect; inactive = flat fitted curve, though single readings scatter; cell line not stated here;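 further: potency means the concentration at half of the fitted maximal effect; % of control where 0% means no effect; nearly all actives have a fitted effect of over 65% in size; a mitochondrial uncoupler was the plate control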
#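 A stable cell line was treated with compounds at 5 concentrations for 24 hours, with CCCP as control. PINK1 levels and mitochondrial localization were measured by immunofluorescence with mitochondrial, cell and nuclear markers after fixation, read by laser-scanning cytometry.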
# Sfp PPTase inh – qHTS Assay for Inhibitors of Bacillus subtilis Sfp phosphopantetheinyl transferase (PPTase). hit rate 3.5% among 310,000. Biochemical Sfp PPTase activity, qHTS. 4'-phosphopantetheinyl transferase ffp (Bacillus subtilis), Q9F4F7. AID 1490, 2009. Potency, µM, for inactives: max response, negative = inhibition, hits mostly inhibitors; active means well fitted inhibition curve with a large enough effect; inconclusive means small, poorly fitted or top-dose-only effect, or another doubt; inactive means no such curve, though single readings can be large or run the other way;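 further: the enzyme is Sfp with the accession as filed and its product quenches rhodamine fluorescence; potency means the concentration at half of the fitted maximal effect; 0% = enzyme reaction without inhibitor and -100% = no enzyme wells; top concentration of the series not given in the record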
#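 Reaction rates are the 30-min fluorescence difference (ex 525, em 598 nm) in wells containing 15 nM Sfp, 5 uM rhodamine-CoA and 12.5 uM BHQ-2-YbbR at pH 7.6 with 10 mM MgCl2.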
# TRPV1 PAM – HTS Assay for Compounds that Act as Potentiators of the Vanilloid Receptor 1; hit rate 0.02% among 320,000; potentiation, % at 8.33 µM; Transient receptor potential cation channel subfamily V member 1 (Homo sapiens), Q8NER1; AID 540277, 2011; TRPV1-expressing cells, Fluo-8 calcium influx, capsaicin EC20 potentiation; host cell line not named in the record; control for the full effect not named in the record; active means potentiation above 80%; inconclusive means 30% to 80%; inactive means below 30%; further: 0% is about no effect
#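 TRPV1-expressing cells were cultured overnight at 35.5C and loaded with Fluo-8 calcium dye for 40 to 90 min at room temperature. After a 10 s baseline, compound was added and calcium influx was read kinetically for 3 min (ex 480/em 520 nm).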
# Six1-Eya2 inh – qHTS Assay for Inhibitors of the Six1/Eya2 Interaction; hit rate 0.56% among 360,000; activity change, % (test concentration not listed); AlphaScreen GST-Six1/His-Eya2 binding, biochemical; stronger effect = lower value; control for the full effect not named in the record; in the data active = activity change below about -65%; inconclusive = about -30% to -65%; inactive = above about -30%; further: on the % scale 0 is the no-effect control and ±100 the full control effect; compound concentration not given in the record
# Target sequence (O00167 whole entry, looked up): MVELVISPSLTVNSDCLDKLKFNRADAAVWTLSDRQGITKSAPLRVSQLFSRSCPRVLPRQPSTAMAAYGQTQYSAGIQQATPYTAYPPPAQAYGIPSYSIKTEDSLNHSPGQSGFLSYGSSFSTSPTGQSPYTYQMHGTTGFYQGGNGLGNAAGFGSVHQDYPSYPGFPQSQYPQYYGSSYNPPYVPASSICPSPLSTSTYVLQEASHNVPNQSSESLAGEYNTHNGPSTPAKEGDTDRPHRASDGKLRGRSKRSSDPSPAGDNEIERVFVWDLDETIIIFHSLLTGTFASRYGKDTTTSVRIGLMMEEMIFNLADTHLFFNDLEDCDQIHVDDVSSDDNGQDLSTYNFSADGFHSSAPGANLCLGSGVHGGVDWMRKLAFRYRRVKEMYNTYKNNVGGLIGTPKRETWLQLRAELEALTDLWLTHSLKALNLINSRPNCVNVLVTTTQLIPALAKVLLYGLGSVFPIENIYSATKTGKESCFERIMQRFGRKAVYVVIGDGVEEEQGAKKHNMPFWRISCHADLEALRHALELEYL
# Target sequence (Q15475 whole entry, looked up): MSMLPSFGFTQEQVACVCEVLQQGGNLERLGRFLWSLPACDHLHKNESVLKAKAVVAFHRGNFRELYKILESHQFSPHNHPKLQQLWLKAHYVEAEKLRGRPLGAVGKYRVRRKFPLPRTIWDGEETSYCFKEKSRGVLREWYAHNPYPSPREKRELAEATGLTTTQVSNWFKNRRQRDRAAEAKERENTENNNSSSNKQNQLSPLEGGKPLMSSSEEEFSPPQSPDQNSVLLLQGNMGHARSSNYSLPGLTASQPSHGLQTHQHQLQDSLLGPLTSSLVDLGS
#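 AlphaScreen luminescence read after one hour at 37 °C in darkness. Pin-transferred compounds met GST-Six1 and His-Eya2 protein (5X stock 250 nM/500 nM) plus glutathione donor and Ni-chelate acceptor beads (5X, 50 ug/mL).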
# The depositor's hits bear a star; ? = inconclusive; nt = not tested or not shown; & = joins results of further samples; [ ] = remark or other dose.
SMILES	D2 potentiator	D2 agonist	CtBP-E1A blk	PINK1 modulator	Sfp PPTase inh	TRPV1 PAM	Six1-Eya2 inh
COC(=O)CCCC1=CC2=C(c3ccccc3)C(=O)C(C)(OC(=O)C3CCCC3)C(=O)C2=CN1CCCCO (stereo unspecified)	-5	1.1	-1	-0.7%	-7%&1%	-16	4
Nc1ccn(CC(=O)NCc2ccccn2)c(=O)n1	-1	-2.4	2	-0.2%	nt	16	-2
COc1ccc(CNC(=O)C2CCC(=O)N(CC3CCCCC3)C2)cc1 (stereo unspecified)	-7	-3.0	2	-0.5%	2%	25	4
CCC(C)NC(=O)C(NS(=O)(=O)c1ccc2c(c1)c(=O)n(C)c(=O)n2C)c1ccccc1 (stereo unspecified)	-3	-5.6	3	0.5%	0%	2	-4
CCN(c1ccccc1)S(=O)(=O)c1cccc(C(=O)NCC(c2cccs2)N(C)C)c1 (stereo unspecified)	-11	-5.7	0	0.8%	21%	27	-6
Cc1c(NC(=O)CN2C(=O)NC3(CCCC3)C2=O)c(=O)n(-c2ccccc2)n1C	1	2.7	-9	-1.0%	8%	-6	-8
Cc1cc(C)c(S(=O)(=O)N2CCN(C(=O)C3CC3)CC2)c(C)c1	-3	-1.9	0	-1.4%	nt	-9	1
CC(C(=O)N1CCN(C)CC1)N1C(=O)c2ccccc2C1=O (stereo unspecified)	0	-3.8	5	?	10%	3	0
CC1=CC(c2ccccc2)n2nc(NS(=O)(=O)c3ccc(C)cc3)nc2N1 (stereo unspecified)	-5	0.0	1	-3.3%[38.3 µM]	5%	-8	-5
CC(=O)Nc1ccccc1S(=O)(=O)CC1CC1(Cl)Cl (stereo unspecified)	-5	-2.0	4	-0.9%	11%	14	4
CC(=O)Nc1ccc(CNc2nc(NCC3CC3)nc3ccsc23)cc1	-12	-6.2	-11	7.9%	nt	nt	-5
Cc1[nH]c2ccccc2c1N=Nc1cccc(C(=O)O)c1	-27	-4.2	-1	-1.2%	2%	-12	?
CCOc1ccc(-c2noc([C@@H]3O[C@H](CO)[C@@H](O)[C@H]3O)n2)cc1	-2	-2.2	2	-0.7%	nt	nt	3
Cc1c(Cl)cccc1N1CC(C(=O)Nc2nccs2)CC1=O (stereo unspecified)	-2	1.0	3	-0.5%	-1%	2	1
CC(c1ccccc1)n1cc(C(=O)NCCN2CCOCC2)nn1 (stereo unspecified)	-2	-3.8	1	-1.9%	19%	-10	5
CCC(CC)C(=O)Nc1cccc(C(=O)N2CCOCC2)c1	-5	-1.9	12	3.7%[38.3 µM]	-15%	0	-1
COC(=O)c1cc(=O)nc2scc(C)n12	-5	-8.0	-7	0.8%	6%	3	5
COc1ccc2oc(N)c(C=O)c(=O)c2c1	-6	-1.9	-3	-3.0%	22%	25	0
COc1ccc(CN2CCC(n3nccc3NC(=O)C3CCCC3)CC2)c(OC)c1	-7	-3.1	-9	-0.5%	-4%	4	2
C=CCN1C(=O)C(Cc2ccc(OC)cc2)SC1=Nc1ccc(C(=O)O)cc1 (stereo unspecified)	-3	-3.0	-1	-2.0%	-9%	-3	-4
CCCCNCc1cc(Br)c(OCC(=O)NCc2ccccc2)c(OC)c1	-9	-3.6	6	-0.3%	7%	7	-1
O=C(NCc1ccc2c(c1)OCO2)C(=S)N1CCOCC1	0	-0.8	5	-0.2%	25%	-11	1
CCOC(=O)N1CCC(NC(=O)C2CCN(S(=O)(=O)c3c(C)noc3C)CC2)CC1	12	-0.7	10	0.4%	19%	-6	4
Cc1cc(C)c2c(=O)[nH]c(SCC(=O)c3ccc(C(C)C)cc3)nc2n1	-1	-2.3	5	6.8%	16%	-6	5
COc1ccc(OC)c(NC(=O)[C@@H]2CCCN2C(=O)c2cccs2)c1	-2	-1.1	4	-2.8%	7%	-7	0
CCOC(=O)c1c(NC(=O)c2noc(C)c2[N+](=O)[O-])sc(C(C)=O)c1C	2	-1.0	-3	1.3%	-21%	1	1
Cc1ccc(S(=O)(=O)CCC(=O)Nc2sccc2C#N)cc1	-19	-2.4	3	-0.2%	nt	-5	-3
CCOc1ccc(CNC(=O)C(C)n2nc(C)c3c(C)n(-c4ccccc4)nc3c2=O)cc1 (stereo unspecified)	-10	0.2	2	0.1%	22%	20	1
COc1ccccc1N(C)S(=O)(=O)c1ccc(C(=O)OC(C)C(=O)NCc2ccc3c(c2)OCO3)cc1 (stereo unspecified)	-9	-2.9	nt	-0.3%	11%	11	-8
NC(=O)C1(Nc2ccccc2Cl)CCCC1	-6	-0.1	-3	-1.2%	nt	nt	6
NC(=O)c1cc(S(=O)(=O)Nc2ccccc2)cs1	-4	-2.7	-13	0.1%	9%	-11	-14
CCOC(=O)Cn1c2c(c(=N)c3c1CCC3)CCCC2	-6	-1.7	13	0.0%	-5%	0	1
CN(CCc1ccccn1)Cc1ccc(Cl)cc1Cl	-15	-3.0	-4	-0.2%[38.3 µM]	?	nt	1
CCN(CC)C(=O)CN(c1cc2c(cc1OC)oc1ccccc12)S(=O)(=O)c1ccccc1	-5	-2.4	-7	5.4%	12%	5	-7
CCC1CCCCN1C(=O)c1cc2c(=O)n3cccc(C)c3nc2s1 (stereo unspecified)	-6	-2.7	0	-0.2%	-15%	2	2
O=C(NCCN1C(=O)S/C(=C/c2cccnc2)C1=O)C1=NN(c2ccccc2)C(=O)CC1	-1	13	?	-0.3%	nt	2	-21
Oc1ccc(/C=C/c2ccc3ccccc3n2)cc1	-1	1.0	nt	2.9%	-19%	-12	9
CCCCC(O)(C(NC=O)C(=O)OC)C(F)(F)F (stereo unspecified)	-10	-2.3	-1	1.9%	-7%	?	4
COc1ccc(N(CC(=O)NCCSc2ccccn2)S(=O)(=O)c2ccccc2)cc1Cl	1	-1.6	-2	1.6%	5%	?	-10
Cc1ccc(CNC(=O)C2CCN(c3nn4c(=O)cc(C)nc4s3)CC2)cc1	-10	-0.2	?	0.1%	9%	9	?
CCCN(CCC)S(=O)(=O)c1ccc(C(=O)Nc2nc3c(s2)CCc2ccccc2-3)cc1	3	1.5	3	8.8%	-4%	-4	7
COc1cccc(-c2csc(N3CCN(C(=S)Nc4ccc(Cl)cc4)CC3)n2)c1	2	1.8	5	nt	45µM*	2	-14
O=C(/C=C/c1ccccc1)NCCSc1ccc(Cl)cc1	-15	-4.6	15	-0.8%	-7%	-8	17
CCCOc1ccc(C(CC(=O)O)NS(=O)(=O)c2ccc(NC(C)=O)cc2)cc1 (stereo unspecified)	-19	-3.2	-2	2.6%	21%	2	-2
O=C(O)C(=Cc1ccc([N+](=O)[O-])cc1)c1cccc(Cl)c1	1	-2.4	3	-0.2%	nt	nt	-2
COc1ccc(NC(=O)C2CCN(c3cc(C)nc(-c4ccccc4)n3)CC2)cc1	-15	-3.6	0	-0.6%	-14%	2	0
CCc1nn(C(CC)C(=O)NCC(C)c2ccccc2)c(=O)c2cc3occc3n12 (stereo unspecified)	-2	-3.2	4	0.4%	6%	-11	-1
COc1cccc(CN(C)CC(=O)Nc2sc3c(c2C#N)CCC3)c1	3	-3.6	12	3.1%	0%	-13	-8
Cc1nc(N2CCN(c3ccccn3)CC2)c2c(C)c(C(=O)Nc3c(C)cc(Br)cc3C)sc2n1	-12	-3.6	-5	3.0%	21%	0	-11
Cc1c(NC(=O)C(C)N2C(=O)NC3(CCC(C)CC3)C2=O)c(=O)n(-c2ccccc2)n1C (stereo unspecified)	3	0.4	1	0.3%	-8%	0	0
CS(=O)(=O)c1nc(-c2ccc(Br)cc2)cc(-c2ccccc2)c1C#N	0	-2.5	-5	-2.7%	3%	22	11
O=C(c1cc2cc(Cl)ccc2o1)N1CCCCCC1	20	-1.4	0	2.8%	nt	-21	2
O=C(O)c1ccccc1CSc1ncn[nH]1	0	1.2	2	17%[38.3 µM]	-3%	-1	7
CCCCC(CC)COP(=O)(OCC(CC)CCCC)OCC(CC)CCCC (stereo unspecified)	-12	-0.9	1	2.2%	nt	1	-3
CCC(C)(C)C1CCC(=NNC(=S)Nc2cccnc2)CC1 (stereo unspecified)	-19	-7.9	-5	-1.2%	?	-14	-15
Cc1nnc(C)c2c(C)n(-c3ccc(Cl)c(N)c3)c(C)c12	3	0.5	-5	1.5%	-19%	-1	5
COC(=O)c1ccc2nc(C(C)(C)C)c(Cc3ccc(OC)cc3C)n2c1	-8	-5.2	4	-0.9%	nt	nt	10
COc1ccc(NC(=O)c2c([N+](=O)[O-])c(C(C)(C)C)nn2C)cc1	0	-1.1	-9	2.3%	0%	-4	14
CC1(C)Cc2c(cnn2-c2cccc(F)c2)C(NC(=O)CN2CCCC2=O)C1 (stereo unspecified)	-5	-1.8	4	0.0%	6%	-7	2
CC1CCN(S(=O)(=O)c2ccc3c(c2)N(CC(=O)NCCCOC(C)C)C(=O)CO3)CC1	-13	-2.7	2	2.6%&-1.8%	11%	8	4
CN(CC(=O)Nc1c(Cl)cccc1Cl)C(=O)Cc1ccc2c(c1)CCC2	-15	-2.8	7	1.8%	nt	4	-6
O=C(NNC(=O)c1sccc1-n1cccc1)Nc1ccccc1	-16	-3.3	-14	2.2%	16%	2	2

# Ordered by heavy-atom count (high to low): 3 of the compounds above.
SMILES	D2 potentiator	D2 agonist	CtBP-E1A blk	PINK1 modulator	Sfp PPTase inh	TRPV1 PAM	Six1-Eya2 inh
CCCCC(CC)COP(=O)(OCC(CC)CCCC)OCC(CC)CCCC (stereo unspecified)	-12	-0.9	1	2.2%	nt	1	-3
CS(=O)(=O)c1nc(-c2ccc(Br)cc2)cc(-c2ccccc2)c1C#N	0	-2.5	-5	-2.7%	3%	22	11
O=C(O)C(=Cc1ccc([N+](=O)[O-])cc1)c1cccc(Cl)c1	1	-2.4	3	-0.2%	nt	nt	-2

# Screens deposited in PubChem by National Center for Advancing Translational Sciences (NCATS).

# Not a hit list (roughly 3.7% active in at least one column).
